Cruzain noTriton – cruzain (T. cruzi) inhibition without detergent | P25779 | 200,000 compounds, 2.3% hits | purified cruzain, Z-FR-AMC fluorescence, no detergent | Potency, µM, for the others: max response, negative = inhibition, hits mostly inhibitors;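 further: plate controls were enzyme without inhibitor for no effect and buffer without enzyme for full effect; nearly all actives have a fitted effect of over 40% in size; top concentration of the series not given in the record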
Target sequence (P25779 123-467 limits assumed): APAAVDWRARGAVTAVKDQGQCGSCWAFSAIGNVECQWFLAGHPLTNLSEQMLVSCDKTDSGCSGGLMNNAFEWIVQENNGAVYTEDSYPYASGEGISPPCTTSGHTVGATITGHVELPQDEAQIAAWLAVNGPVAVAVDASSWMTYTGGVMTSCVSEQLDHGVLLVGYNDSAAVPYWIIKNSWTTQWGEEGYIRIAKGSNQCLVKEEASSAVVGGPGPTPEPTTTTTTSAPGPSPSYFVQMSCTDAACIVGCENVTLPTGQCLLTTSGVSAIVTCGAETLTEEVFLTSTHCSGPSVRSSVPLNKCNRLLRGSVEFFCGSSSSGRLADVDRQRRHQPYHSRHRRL
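Purified cruzain at 1.5 nM, pre-incubated 15 min with compound at room temperature in 100 mM sodium acetate pH 5.5, 5 mM DTT, 0.00005% Triton X-100. Reaction started with 2 uM Z-FR-AMC; AMC fluorescence increase over 60 s gives rate.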
Cruzain inh Det – blocks cruzain activity in presence of Triton detergent; purified cruzain, Z-FR-AMC fluorescence, 0.01% Triton; Potency, µM, for inactives: max response, negative = inhibition, usual class: inhibitors; P25779; 200,000 compounds, 0.43% hits;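 further: plate controls were neutral wells for no effect and buffer without enzyme for full effect; nearly all actives have a fitted effect of over 40% in size; top concentration of the series not given in the record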
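Enzyme 1.5 nM, Z-FR-AMC 2 uM, NaOAc 100 mM pH 5.5, DTT 5 mM, Triton X-100 0.01%; 15 min RT compound preincubation; kinetic ex360/em450, 60 s delta.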
MARV entry inh – Marburg virus entry inhibition. Marburg virus pseudotyped entry inhibition, cell reporter; control for the full effect not named in the record; about a third of the inactives were read at about 46 µM. Potency, µM (top dose mostly 37.8 µM), for the others: at the highest dose activity change, negative = inhibition, usual class: inhibitors. 300,000 compounds, 1.8% hits. AID 540276; active = well fitted inhibition curve with a large enough effect; inconclusive = small, poorly fitted or top-dose-only effect, or effect the other way; inactive = flat fitted curve, though single readings scatter; tested in HEK293 cells; about a fifth of its hits are not listed in these tables; further: on the % scale 0 is the no-effect control and ±100 the full control effect; luciferase read-out
Lassa entry inh – blocks Lassa virus binding to or entry into cells | Potency, µM (top dose mostly 37.9 µM), for inactives: at the top dose activity change, negative = inhibition, actives largely listed as inhibitors | Lassa virus pseudotype entry inhibition, cell reporter; control for the full effect not named in the record | 300,000 compounds, 1.2% hits; active means well fitted inhibition curve with a large enough effect; inconclusive means small, poorly fitted or top-dose-only effect, or effect the other way; inactive means flat fitted curve, though single readings scatter; tested in HEK293 cells; further: on the % scale 0 is the no-effect control and ±100 the full control effect; nearly all actives have a fitted effect of over 50% in size; luciferase read-out
NS1 inh – influenza NS1 inhibition | Potency, µM (titrated, usually from 46.1 µM), for inactives: at the highest dose activity, positive = more growth | 270,000 compounds, 0.4% hits | AID 2326 | S. cerevisiae slowed by influenza A NS1, growth recovery by OD600; active means well fitted rising curve with a large enough effect; inconclusive means small, poorly fitted or top-dose-only effect; inactive means no such curve, though single readings can be large or run the other way; further: nearly all actives have a fitted effect of over 50% in size
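A cell-based growth assay was used: compounds that relieve NS1-induced slow growth of budding yeast raise OD600. Assay medium was yeast nitrogen base with ammonium sulphate and -URA supplement, pH 6.0, with 2% galactose.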
SARS PLpro yeast – blocks SARS-CoV papain-like protease in a yeast assay. S. cerevisiae expressing SARS-CoV PLpro, growth rescue; control for the full effect not named in the record. Potency, µM (top dose mostly 32.9 µM), for inactives: at the top dose activity, positive = growth rescue. 330,000 compounds, 0.19% hits. AID 485353; active means well fitted rising curve with a large enough effect; inconclusive means small, poorly fitted or top-dose-only effect; inactive means no such curve, though single readings can be large or run the other way; further: 0% is about no effect; nearly all actives have a fitted effect of over 55% in size; growth read by luminescence after 48 h
2A StopGo – FMDV 2A StopGo reporter, luciferase signal. AID 1159524. Potency, µM (titrated, usually from 57.9 µM), without a hit: at the top dose signal change, negative = less light. 410,000 compounds, 1.2% hits. human cells with a luciferase reporter of 2A StopGo recoding; control for the full effect not named in the record; active = well fitted falling curve with a large enough effect; inconclusive = small, poorly fitted or top-dose-only effect; inactive = no such curve, though single readings can be large or run the other way; tested in HEK293T cells; further: on the % scale 0 is the no-effect control and ±100 the full control effect; nearly all actives have a fitted effect of over 45% in size; luciferase light after 4 h
RE007 growth inh – less growth of the S. pombe RE007 Vpr strain. 360,000 compounds, 0.21% hits. AID 651644. S. pombe RE007 Vpr strain, BacTiter-Glo ATP luminescence, 24 h; control for the full effect not named in the record. Potency, µM (highest dose often 92.2 µM), for inactives: at the top dose activity change, negative = less growth; active = well fitted falling curve with a large enough effect; inconclusive = small, poorly fitted or top-dose-only effect; inactive = no such curve, though single readings can be large or run the other way;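 further: on the % scale 0 is the no-effect control and ±100 the full control effect; nearly all actives have a fitted effect of over 50% in size; the assay follows cell death caused by Vpr and the record does not say whether a fall means rescue or toxicity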
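Fission yeast strain RE007, carrying one chromosomally integrated HIV-1 vpr copy, was seeded at OD 0.01 in PMG+AL medium with 23 nL pinned compound. After 24 h at 30 °C and 99% humidity, viability was read by BacTiter-Glo luminescence.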
* = called active by the depositor; u = inconclusive; x = not tested or not shown; [ ] = remark or other dose. Unless noted, the call rests on the fitted dose curve; in most records, active means well fitted curve in the direction sought with a large enough effect; inconclusive means small, poorly fitted or top-dose-only effect, or another doubt; inactive means no such curve, though single readings can be large; an effect the other way counts as inactive or inconclusive. Potency means the concentration at half of the fitted maximal effect.

Values run as follows: SARS PLpro yeast | Cruzain inh Det | 2A StopGo | MARV entry inh | Lassa entry inh | RE007 growth inh | Cruzain noTriton | NS1 inh
> COCCNC(=O)c1ccccc1NC(=O)c1ccc(Cl)c(S(=O)(=O)Nc2ccc(C)cc2C)c1
    -13% | -0.7% | x | u | -1% | -3% | -1% | 1%
> Cc1ccc(CN2CCN(CC(=O)N=Nc3c(O)[nH]c4ccccc34)CC2)cc1
    -5% | -3.7% | u | u | u | -11% | 2% | 1%
> CCCCCn1c(CN2CCN(C(=O)OCC)CC2)nc2c1c(=O)n(C)c(=O)n2C
    x | x | x | u | u | 13% | x | -25%
> O=C(CN(c1ccccc1)S(=O)(=O)c1ccccc1)NCCSCc1ccco1
    -9% | -2.5% | -5% | -10% | -17% | -6% | 6% | 0%
> COC(=O)c1c(NC(=O)CSc2ncn[nH]2)sc(C)c1C
    0% | x | -21% | u | 4% | -1% | x | x
> COC(=O)c1cc2ccsc2n1CC(=O)NCC1CCCO1 (configuration not stated)
    -1% | 4.2% | x | 20% | 0% | 12% | 3% | 6%
> COc1ccc(C(=O)Nc2ccc(NC(=O)CSc3nnc(-c4ccncc4)n3C)cc2)cc1
    10% | x | 7% | -17%[46.1 µM] | -5%[46.1 µM] | -23% | x | -5%
> Cc1ccc(S(=O)(=O)N2CCN(C(=O)CSc3nccn3C)CC2)cc1
    1% | x | 20% | 3%[46.1 µM] | -12% | -8% | x | 7%
> Cn1nc(C(=O)OCCN2C(=O)c3ccccc3C2=O)c2ccccc2c1=O
    6% | -4.5% | -21% | u | u | 16% | 0% | -15%
> Cc1ccc(O)c(C(=O)c2cc(C#N)c(=O)n(-c3c(C)n(C)n(-c4ccccc4)c3=O)c2)c1
    2% | -2.6% | -3% | 1% | -20% | 8% | 2% | 2%
> On1c(-c2ccccc2)nc2ncccc21
    0% | x | -4% | x | x | 17% | x | 5%
> Cc1nc(-c2cccc(-c3noc(C)n3)c2)no1
    0% | 2.8% | 14% | 2% | 1% | 4% | -5% | 10%
> CSc1ccc(/C=N/NC(=O)c2ccccc2Cl)cc1
    -1% | x | 65%[activator] | u | 8.9µM* | 3% | x | -8%
> OC1CCCC1NCc1ccnc2cc(Cl)ccc12 (configuration not stated)
    x | x | -8% | u | 1%[46.1 µM] | -7% | x | x
> COc1ccc(S(=O)(=O)N2CCCCCC2)cc1NS(=O)(=O)c1cc(C(=O)O)cc(C)c1C
    0% | x | -11% | -10% | 14% | 7% | x | x
> CC(=O)Nc1ccc(S(=O)(=O)N2CCC3(CC2)CC(=O)c2ccccc2O3)cc1
    -1% | x | -15% | -1% | -25%[46.1 µM] | 2% | x | x
> COc1cc([N+](=O)[O-])cc([N+](=O)[O-])c1NC(=O)N1CCOCC1
    x | x | -14% | 8%[46.1 µM] | 11% | -5% | x | 0%
> CC(=O)NN1C(=O)/C(=C\c2ccc(Br)o2)SC1=S
    18% | -10% | u | -5% | 6% | -3% | -17% | -6%
> CCN(CC)S(=O)(=O)c1ccc(NC(=O)COC(=O)CNC(=O)C2CCCCC2)cc1
    -1% | x | -22% | 18% | -3% | -4% | x | x
> NS(=O)(=O)c1ccc(N2CCN(S(=O)(=O)Cc3ccccc3)CC2)nc1
    4% | x | -7% | -21%[46.1 µM] | -10%[46.1 µM] | -11% | x | x
> CC(=O)Nc1ccc(S(=O)(=O)Nc2cc(Cl)ccc2N2CCOCC2)cc1
    4% | x | -9% | u | -15% | -1% | x | x
> COc1ccccc1N1C(=O)C2CC=CC(C)C2C1=O (configuration not stated)
    2% | 3.3% | -9% | 6% | -14% | 1% | -3% | -2%
> CSC(=O)CC(=O)NC(=O)c1ccccc1
    8% | -0.3% | -21% | -9% | 5% | 15% | 1% | 21%
> CC1CN=C(NCc2ccccc2Cl)S1 (configuration not stated)
    13% | x | -2% | x | x | -18% | x | 14%
> CC(C)=CCc1c(O)c(CC=C(C)C)c2occ(-c3ccc(O)cc3)c(=O)c2c1O
    -11% | x | -12% | x | x | u | x | -6%
> O=C(Nc1c(C(=O)N2CCOCC2)cnn1-c1ccccc1)c1ccccc1
    3% | 3.1% | 2% | 13% | -13% | 10% | -1% | 1%
> O=C(CCN1C(=O)[C@@H]2Cc3ccccc3CN2C1=O)N[C@@H](Cc1ccccc1)C(=O)O
    6.3µM* | x | -25% | x | x | 6% | x | 9%
> CCNc1ccc(C(=O)OCC(=O)NCCN2C(=O)CSC2=O)cc1[N+](=O)[O-]
    0% | x | -12% | u | -23%[46.1 µM] | -8% | x | x
> OC(C#CCN1CCOCC1)(c1ccccc1)C1CCCC1 (configuration not stated)
    -11% | 1.2% | 1% | 3% | 10% | 10% | 2% | 1%
> CCc1cccc(CC)c1NC(=O)CSc1nc2ccc(N3C(=O)C4C5C=CC(C5)C4C3=O)cc2s1 (configuration not stated)
    0% | 3.1% | u | u | u | -14% | -9% | 13%

Single records, as listed above. Values in the order: SARS PLpro yeast	Cruzain inh Det	2A StopGo	MARV entry inh	Lassa entry inh	RE007 growth inh	Cruzain noTriton	NS1 inh
CC(=O)Nc1ccc(S(=O)(=O)N2CCC3(CC2)CC(=O)c2ccccc2O3)cc1 is listed with -1%	x	-15%	-1%	-25%[46.1 µM]	2%	x	x
OC(C#CCN1CCOCC1)(c1ccccc1)C1CCCC1 (configuration not stated) is listed with -11%	1.2%	1%	3%	10%	10%	2%	1%
O=C(Nc1c(C(=O)N2CCOCC2)cnn1-c1ccccc1)c1ccccc1 is listed with 3%	3.1%	2%	13%	-13%	10%	-1%	1%

Going on with the list.
Values run as follows: SARS PLpro yeast | Cruzain inh Det | 2A StopGo | MARV entry inh | Lassa entry inh | RE007 growth inh | Cruzain noTriton | NS1 inh
> CCn1cnc2c(=O)oc3ccc(S(=O)(=O)Nc4ccc(OC)cc4)cc3c21
    x | -3.5% | -12% | 5%[46.1 µM] | u | x | -6% | x
> O=C1CCN(Cc2ccccc2)CCN1[C@H](COc1ccccc1)Cc1ccccc1
    1% | x | -15% | x | x | -11% | x | -20%
> O=C(N/C(=C\c1cccc([N+](=O)[O-])c1)C(=O)N1CCOCC1)c1ccc([N+](=O)[O-])cc1
    -1% | x | 5% | x | x | 2% | x | -1%
> CC(C)C(=O)NC(c1cccc([N+](=O)[O-])c1)c1c(O)ccc2ccccc12 (configuration not stated)
    1% | x | 39%[activator] | -23%[46.1 µM] | 10% | 2% | x | 4%
> COCCN(C(=O)Nc1ccc(OC)cc1OC)C1CCN(C(C)C)CC1
    -3% | 13% | x | 2% | 6% | 12% | -2% | -7%
> CCOC(=O)N1CCN(Cc2nc3c(c(=O)n(C)c(=O)n3C)n2CCCc2ccccc2)CC1
    2% | 2.3% | -11% | -10% | -26% | u | u | -11%
> Cc1ccc(C)c(Cn2c(=O)n(C(C)C)c(=O)c3oc4ccccc4c32)c1
    x | 0.0% | -1% | x | 4%[46.1 µM] | x | -6% | x
> COc1ccccc1-c1nnc2sc(COc3ccc(Cl)cc3Cl)nn12
    8% | -3.5% | -19% | 17% | u | 4% | 5% | -117%
> Cc1cc(C)c2c(N)c(C(=O)Nc3nccs3)sc2n1
    -1% | 1.6% | -81% | u | u | -20% | u | -68%
> CCOC(=O)c1cnn(-c2ccccc2)c1NC(=O)c1ccccc1C
    x | -0.3% | x | 0% | 6% | -13% | 7% | -13%
> c1ccc2oc(SCc3cn4ccccc4n3)nc2c1
    -12% | -0.3% | x | u | u | -20% | -11% | -45%
> CC(C)c1nc(C#N)c(N2CCOCC2)o1
    4% | -1.6% | 0% | -9% | 3% | 3% | -3% | -15%
> COc1ccc(S(=O)(=O)N2CCC(C(=O)NCCC(=O)Nc3cccc(Cl)c3)CC2)cc1
    6% | x | -19% | x | x | 4% | x | -1%
> O=C(Cn1ccc([N+](=O)[O-])n1)N1CCc2ccccc21
    0% | x | 9% | x | x | 6% | x | 0%
> CN1CCN(CCNC(=O)Nc2ccccc2[N+](=O)[O-])CC1
    -1% | x | 4% | 26%[46.1 µM] | -1%[46.1 µM] | 14% | x | 5%
> O=C(NCC1CCS(=O)(=O)C1)NCC1CCS(=O)(=O)C1 (configuration not stated)
    2% | -0.4% | -3% | -2% | -15% | 5% | -3% | -1%
> O=C(CSc1nnc(-c2ccncc2)o1)Nc1cc(F)ccc1F
    -7% | x | 14% | 22% | u | -25% | x | x
> O=C(CNS(=O)(=O)c1ccc(Br)s1)N1CCC2(CC1)OCCO2
    2% | 4.4% | 5% | 9%[46.1 µM] | 1% | -14% | 8% | 4%
> CC(=O)c1cc2c(cc1NS(=O)(=O)c1ccccc1Br)OCO2
    0% | x | 14% | -2%[46.1 µM] | u | 2% | x | 7%
> Cc1n[nH]c(=O)c2c(NC(=O)CSc3nnc(-c4ccncc4)n3C)oc(C)c12
    -6% | x | -11% | u | -5% | -6% | x | 6%

Random excerpt: three entries already listed.
Values run as follows: SARS PLpro yeast | Cruzain inh Det | 2A StopGo | MARV entry inh | Lassa entry inh | RE007 growth inh | Cruzain noTriton | NS1 inh
> OC(C#CCN1CCOCC1)(c1ccccc1)C1CCCC1 (configuration not stated)
    -11% | 1.2% | 1% | 3% | 10% | 10% | 2% | 1%
> CCNc1ccc(C(=O)OCC(=O)NCCN2C(=O)CSC2=O)cc1[N+](=O)[O-]
    0% | x | -12% | u | -23%[46.1 µM] | -8% | x | x
> COCCNC(=O)c1ccccc1NC(=O)c1ccc(Cl)c(S(=O)(=O)Nc2ccc(C)cc2C)c1
    -13% | -0.7% | x | u | -1% | -3% | -1% | 1%

3 compounds from above, ordered by count of non-hydrogen atoms, largest number first:
Values run as follows: SARS PLpro yeast | Cruzain inh Det | 2A StopGo | MARV entry inh | Lassa entry inh | RE007 growth inh | Cruzain noTriton | NS1 inh
> O=C(CSc1nnc(-c2ccncc2)o1)Nc1cc(F)ccc1F
    -7% | x | 14% | 22% | u | -25% | x | x
> CN1CCN(CCNC(=O)Nc2ccccc2[N+](=O)[O-])CC1
    -1% | x | 4% | 26%[46.1 µM] | -1%[46.1 µM] | 14% | x | 5%
> O=C(NCC1CCS(=O)(=O)C1)NCC1CCS(=O)(=O)C1 (configuration not stated)
    2% | -0.4% | -3% | -2% | -15% | 5% | -3% | -1%
